Cruzain Triton: blocks cruzain activity in presence of Triton detergent; P25779; purified cruzain, Z-FR-AMC fluorescence, 0.01% Triton; Potency, µM, for the others: max response, negative = inhibition, actives largely listed as inhibitors; hit rate 0.43% among 200,000;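 also: plate controls were neutral wells for no effect and buffer without enzyme for full effect; nearly all actives have a fitted effect of over 40% in size; top concentration of the series not given in the record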
Target sequence (P25779 123-467 limits assumed): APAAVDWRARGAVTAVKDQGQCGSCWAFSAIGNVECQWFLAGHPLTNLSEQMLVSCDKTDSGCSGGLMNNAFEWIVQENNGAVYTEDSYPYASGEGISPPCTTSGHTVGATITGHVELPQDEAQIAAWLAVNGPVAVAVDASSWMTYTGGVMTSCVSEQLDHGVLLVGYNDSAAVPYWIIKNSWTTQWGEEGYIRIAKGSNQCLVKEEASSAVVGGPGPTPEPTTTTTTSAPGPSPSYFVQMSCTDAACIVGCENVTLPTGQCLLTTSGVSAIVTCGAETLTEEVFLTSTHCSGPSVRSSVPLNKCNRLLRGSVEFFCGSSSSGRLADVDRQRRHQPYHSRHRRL
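Steps: dispense cruzain (1.5 nM final) in acetate buffer pH 5.5 with DTT and 0.01% Triton X-100; pin-transfer compounds; incubate 15 min RT; add Z-FR-AMC (2 uM final); read fluorescence every 30 s, using the 60 s intensity change.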
RE007 growth inh: less growth of the S. pombe RE007 Vpr strain; S. pombe RE007 Vpr strain, BacTiter-Glo ATP luminescence, 24 h; control for the full effect not named in the record; Potency, µM (series often up to 92.2 µM), for inactives: at the top dose activity change, negative = less growth; hit rate 0.21% among 360,000; active = well fitted falling curve with a large enough effect; inconclusive = small, poorly fitted or top-dose-only effect; inactive = no such curve, though single readings can be large or run the other way;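 also: % is scaled to controls: 0 for no effect and ±100 for the full control effect; nearly all actives have a fitted effect of over 50% in size; the assay follows cell death caused by Vpr and the record does not say whether a fall means rescue or toxicity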
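Fission yeast RE007 carrying one integrated HIV-1 vpr copy, seeded at OD 0.01 in PMG+AL medium with 23 nL pinned compound. Grown 24 h at 30 degrees; viability read by BacTiter-Glo luminescence after 5 min.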
Cruzain noTriton: cruzain (T. cruzi) inhibition without detergent. P25779. purified cruzain, Z-FR-AMC fluorescence, no detergent. Potency, µM, inactives show max response, negative = inhibition, actives largely listed as inhibitors. hit rate 2.3% among 200,000. AID 1476;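 also: plate controls were enzyme without inhibitor for no effect and buffer without enzyme for full effect; nearly all actives have a fitted effect of over 40% in size; top concentration of the series not given in the record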
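Detergent-free condition (0.00005% Triton X-100) in acetate buffer pH 5.5 with DTT. 1.5 nM enzyme and compound were pre-mixed 15 min, then 2 uM Z-FR-AMC substrate added; reaction progress from fluorescence change between first and third reads (60 s).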
MARV entry inh: blocks Marburg virus binding to or entry into cells | Marburg virus pseudotyped entry inhibition, cell reporter; control for the full effect not named in the record; about a third of the inactives were read at about 46 µM | Potency, µM (top dose mostly 37.8 µM), for the others: top-dose activity change, negative = inhibition, actives largely listed as inhibitors | hit rate 1.8% among 300,000 | AID 540276; active = well fitted inhibition curve with a large enough effect; inconclusive = small, poorly fitted or top-dose-only effect, or effect the other way; inactive = flat fitted curve, though single readings scatter; tested in HEK293 cells; about a fifth of its hits are not listed in these tables; also: % is scaled to controls: 0 for no effect and ±100 for the full control effect; luciferase read-out
SARS PLP yeast: inhibitors of SARS-CoV papain-like protease in yeast; S. cerevisiae expressing SARS-CoV PLpro, growth rescue; control for the full effect not named in the record; Potency, µM (titrated, usually from 32.9 µM), inactives show top-dose activity, positive = growth rescue; hit rate 0.19% among 330,000; AID 485353; active means well fitted rising curve with a large enough effect; inconclusive means small, poorly fitted or top-dose-only effect; inactive means no such curve, though single readings can be large or run the other way; also: 0% is about no effect; nearly all actives have a fitted effect of over 55% in size; growth read by luminescence after 48 h
StopGo reporter: FMDV 2A StopGo reporter, luciferase signal; human cells with a luciferase reporter of 2A StopGo recoding; control for the full effect not named in the record; Potency, µM (doses to about 57.9 µM), inactives show at the top dose signal change, negative = less light; hit rate 1.2% among 410,000; AID 1159524; active = well fitted falling curve with a large enough effect; inconclusive = small, poorly fitted or top-dose-only effect; inactive = no such curve, though single readings can be large or run the other way; tested in HEK293T cells; also: % is scaled to controls: 0 for no effect and ±100 for the full control effect; nearly all actives have a fitted effect of over 45% in size; luciferase light after 4 h
Lassa entry inh: Lassa virus entry inhibition; hit rate 1.2% among 300,000; Potency, µM (top dose mostly 37.9 µM), for the others: top-dose activity change, negative = inhibition, hits mostly inhibitors; Lassa virus pseudotype entry inhibition, cell reporter; control for the full effect not named in the record; AID 540256; active means well fitted inhibition curve with a large enough effect; inconclusive means small, poorly fitted or top-dose-only effect, or effect the other way; inactive means flat fitted curve, though single readings scatter; tested in HEK293 cells; also: % is scaled to controls: 0 for no effect and ±100 for the full control effect; nearly all actives have a fitted effect of over 50% in size; luciferase read-out
NS1 inh: blocks influenza NS1 protein function. S. cerevisiae slowed by influenza A NS1, growth recovery by OD600. Potency, µM (titrated, usually from 46.1 µM), without a hit: at the top dose activity, positive = more growth. hit rate 0.4% among 270,000; active means well fitted rising curve with a large enough effect; inconclusive means small, poorly fitted or top-dose-only effect; inactive means no such curve, though single readings can be large or run the other way; also: nearly all actives have a fitted effect of over 50% in size
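OD600 was taken as the measure of yeast growth restored by compound in an NS1-expressing S. cerevisiae strain. Cells had been washed out of glucose medium and diluted 1:100 into galactose -URA medium, pH 6.0.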
Numbers without * were called inactive; ? = inconclusive; . = not tested or not shown; [ ] = another dose, or the depositor's remark. Unless noted, calls follow the shape of the dose curve; as a rule, active = well fitted curve in the direction sought with a large enough effect; inconclusive = small, poorly fitted or top-dose-only effect, or another doubt; inactive = no such curve, though single readings can be large; an effect the other way counts as inactive or inconclusive. Potency is read from the fitted curve at half-maximal effect. Rows are unselected. About 4.7% of those tested had a hit in this group.

Values in the order – Cruzain Triton	MARV entry inh	Cruzain noTriton	NS1 inh	Lassa entry inh	RE007 growth inh	SARS PLP yeast	StopGo reporter
1. CCc1ccc2c(c1)NC(c1ccc(OC)cc1)=NC(c1ccncc1)=N2
    -3.0%	-21%[46.1 µM]	-14%	.	10%[46.1 µM]	.	.	-7%
2. Cc1cc(Oc2ccc(=O)n(C)n2)nc(Oc2ccc(=O)n(C)n2)n1
    9.5%	-1%	-3%	-1%	2%	12%	-3%	0%
3. CCn1c(SCC(=O)N2CCc3ccccc32)nnc1-c1ccncc1
    -1.4%	16%	-12%	7%	13%	2%	-3%	19%
4. Cc1cc(C)nc(SCC(=O)NN=Cc2ccc(C)o2)n1
    .	0%[46.1 µM]	.	.	6%[46.1 µM]	10%	0%	-7%
5. COC(=O)c1c(-c2cccs2)csc1NC(=O)c1ccc(C)cc1
    -5.1%	0%[46.1 µM]	1%	.	?	.	.	24%
6. O=C(c1nnsc1S(=O)c1ccc(Cl)cc1)N1CCOCC1 (centres undefined)
    .	.	.	.	?	?	-24%	35µM*
7. COc1cccc(CC2(CO)CCN(Cc3ccc(NC(C)=O)cc3)CC2)c1
    .	13%[46.1 µM]	.	0%	6%	-6%	0%	-7%
8. O=C(Cn1cc(/C=N/NC(=O)c2cccc3ccccc23)c2ccccc21)Nc1ccc(F)cc1
    .	.	.	10µM*	.	-8%	0%	-14%
9. Cc1ccccc1OCCC(=O)Nc1c(C)n(C)n(-c2ccccc2)c1=O
    1.5%	18%	7%	5%	-20%	0%	-1%	15%
10. CC(C)c1nnc(SCC(=O)N2CCc3ccccc32)n1C
    0.0%	18%	-7%	-1%	-25%	13%	-13%	8%
11. Cc1ccc(CS(=O)Cc2ccc(C(=O)NCc3cccs3)o2)cc1 (centres undefined)
    .	.	.	3%	.	4%	2%	18%
12. Cc1ccc(N2CCN(C(=O)c3cnc(N4CCCCC4)c4ccccc34)CC2)c(C)c1
    -5.4%	.	-7%	.	?	.	.	-21%
13. Cc1nn2c(-c3ccc(Cl)cc3Cl)nnc2s1
    5.7%	-7%[46.1 µM]	1%	-2%	3%	-3%	-2%	-10%
14. COc1ccc(/C=C2\CN(Cc3ccccc3)C/C(=C\c3ccc(OC)cc3OC)C2=O)c(OC)c1
    -15%	?	?	13%	?	1%	4%	-27%
15. CCCCCN1C=CC=C/C1=C\C=C(C#N)C#N
    .	7%[46.1 µM]	.	16%	-1%	-1%	0%	-1%
16. NCCNC(=O)Cn1c(=O)c2c3c(sc2n(Cc2ccccc2)c1=O)CCCC3
    .	-41%	.	7%	?	16%	0%	-21%
17. O=C(CNC(=O)c1ccc(Cl)cc1)NC(CO)c1ccccc1 (centres undefined)
    .	-19%[46.1 µM]	.	1%	0%[46.1 µM]	3%	-1%	3%
18. COC(=O)C1=COC(C)C2CN3CCc4c([nH]c5ccccc45)C3CC12 (centres undefined)
    -4.7%	.	-14%	3%	.	-14%	-4%	-13%
19. CCc1ccccc1NC(=O)c1ccc2c(c1)N(Cc1cccc(Cl)c1)C(=O)c1ccccc1S2(=O)=O
    -3.6%	?	16µM*	.	-5%[46.1 µM]	.	.	-19%
20. Cc1ccc(S(=O)(=O)N2CCOCC2)cc1NC(=O)COC(=O)CNC(=O)c1ccc(Oc2ccccc2)cc1
    -11%	-1%	?	11%	15%	12%	6%	-16%

From entry 1 as far as 2, copied from above:
Values in the order – Cruzain Triton	MARV entry inh	Cruzain noTriton	NS1 inh	Lassa entry inh	RE007 growth inh	SARS PLP yeast	StopGo reporter
1. CCc1ccc2c(c1)NC(c1ccc(OC)cc1)=NC(c1ccncc1)=N2
    -3.0%	-21%[46.1 µM]	-14%	.	10%[46.1 µM]	.	.	-7%
2. Cc1cc(Oc2ccc(=O)n(C)n2)nc(Oc2ccc(=O)n(C)n2)n1
    9.5%	-1%	-3%	-1%	2%	12%	-3%	0%

Next part.
Values in the order – Cruzain Triton	MARV entry inh	Cruzain noTriton	NS1 inh	Lassa entry inh	RE007 growth inh	SARS PLP yeast	StopGo reporter
21. O=S(=O)(Nc1ccc(C(F)(F)F)cn1)c1ccccc1
    .	-8%[14.2 µM]	.	-4%	-20%	-3%	-1%	39%[activator]
22. c1ccc(CSCc2cn3ccccc3n2)cc1
    .	?	.	.	?	-2%	0%	54%[activator]
23. O=C(Nc1cccc(NC(=O)C2CC3CCCC(C2)C3=O)n1)C1CC2CCCC(C1)C2=O (centres undefined)
    -1.2%	-25%	4%	-2%	-14%	-12%	3%	?
24. COc1cccc(NC(=O)Cc2cccs2)c1
    3.3%	25%[46.1 µM]	-2%	-13%	14%	14%	5%	30%
25. CCOC(=O)c1sc2ncn(/N=C/c3ccccn3)c(=O)c2c1C
    2.7%	3%	5%	11%	.	.	20%	.
26. CSCCC(C(=O)O)N1C(=O)c2ccc(C(=O)O)cc2C1=O (centres undefined)
    -1.1%	4%	-12%	14%	4%	12%	-1%	-2%
27. Cc1cccc(OP(=O)(Nc2ccc(F)cc2)Oc2cccc(C)c2)c1
    .	?	.	12%	.	0%	0%	39%[activator]
28. O=C(CNC(=O)c1cccc(F)c1)N/N=C/c1cccnc1
    .	.	.	-13%	.	-9%	?	-6%
29. COc1cc(NC(=O)C/C(C)=N/NC(=O)Cc2ccccc2)c(OC)cc1Cl
    -2.0%	-12%	7%	12%	2%	-1%	5%	-21%
30. COc1ccc(CNC(=O)[C@@H](C)NC(=O)[C@@H]2Cc3ccccc3CN2)cc1
    .	.	.	16%	.	-4%	2%	-22%
31. COc1ccc(C2(C)NC(=O)N(Cc3cc(Cl)cc4c3OCOC4)C2=O)cc1OC (centres undefined)
    1.4%	-10%	5%	-2%	0%	-3%	-2%	?
32. O=C1Nc2ccccc2C1=Nc1ccc(Cl)cc1
    .	-27%[46.1 µM]	.	1%	?	-10%	1%	-14%
33. COC(=O)c1ccc(OC)c(NS(=O)(=O)c2ccc(-n3cnnn3)cc2)c1
    .	23%[46.1 µM]	.	7%	.	0%	1%	3%
34. CC(C)CN(C(=O)COC(=O)c1cc2ccccc2cc1O)c1c(N)n(Cc2ccccc2)c(=O)[nH]c1=O
    .	?	.	.	-19%	-6%	.	-10%
35. Cn1cccc1CC(=O)N/N=C/C=C/c1ccccc1
    -8.3%	?	18%	-1%	4%	-11%	1%	49%[activator]
36. COC(=O)c1ccc(C2C(C(=O)c3cc4ccccc4o3)=C(O)C(=O)N2c2cc(C)on2)cc1 (centres undefined)
    .	10%[46.1 µM]	.	16%	9%	1%	0%	-27%
37. O=C1CC(C(=O)N2CCc3ccccc32)CN1c1ccc(F)cc1 (centres undefined)
    .	?	.	-6%	-10%[46.1 µM]	9%	-2%	-1%
38. Nc1nnc(CCCCCc2nnc(N)s2)s1
    .	25%	.	.	13%	-8%	1%	-16%
39. Cc1cccc(C)c1NC(=O)CN(C)C(=O)c1cc([N+](=O)[O-])ccc1N1CCOCC1
    .	1%	.	-3%	8%	-20%	-5%	-28%
40. Cc1ccc(CNC(=O)c2ccc(CSCc3ccc(C)cc3)o2)cc1
    -0.5%	.	-1%	.	?	.	.	-24%
41. Clc1ccccc1-c1nc2nc3ccccc3nc2n1-c1ccc2c(c1)OCO2
    -10%	?	?	-47%	?	0%	-7%	0%
42. O=C(O)CSc1nc2ccccc2nc1Cc1ccccc1F
    .	18%[46.1 µM]	.	-5%	2%[46.1 µM]	-4%	0%	14%
43. CC(C)(C)C(=O)Nc1cccc(C(=O)OCc2cc(=O)n3nc(C4CCCCC4)sc3n2)c1
    2.2%	.	10%	.	-1%[46.1 µM]	.	.	-5%
44. COc1ccc2[nH]c(=O)c(CNc3cccc(C)c3)cc2c1
    -11%	-31%	-8%	2.8µM*	?	0%	6%	-30%
45. COc1ccc(S(=O)(=O)N2CCN(C(=O)CN3C(=O)NC(C)(c4ccc5ccccc5c4)C3=O)CC2)cc1 (centres undefined)
    .	-11%	.	.	-17%[46.1 µM]	-13%	-11%	-16%
46. COc1ccc(OC)c(-c2csc(N(C)C(=O)c3ccco3)n2)c1
    .	.	.	12%	.	-8%	-1%	-10%
47. O=C(Nc1nc2ccccc2s1)C1CC(=O)N(c2ccccc2)C1 (centres undefined)
    -4.9%	12%	6%	-8%	?	-9%	2%	-8%
48. CCOc1ccc(N(CC(=O)NCc2ccc3c(c2)OCO3)C(=O)c2csnn2)cc1
    .	7%[46.1 µM]	.	1%	3%[46.1 µM]	8%	-9%	28%
49. CCCN(CC1CC1)c1nc(N)c(C#N)c(CC#N)c1C#N
    -6.2%	?	-9%	1%	-15%	0%	12%	?
50. C(=N\n1cnnc1)/c1cccs1
    1.7%	-11%	-3%	1%	-10%	9%	-4%	.
51. S=C(NCCN1CCOCC1)Nc1ccccc1Cl
    8.9%	10%	7%	8%	6%	-12%	-6%	-9%
52. COc1ccc(OC)c(C(C(=O)NCc2ccco2)N(C(=O)Cn2nnc3ccccc32)C(C)C)c1 (centres undefined)
    9.9%	?	-3%	-2%	0%	3%	-3%	-24%
53. CNC(=O)c1cccc(NC(=O)c2ccccc2OCc2ccccc2)c1
    .	-26%[46.1 µM]	.	-6%	-9%	27%	-2%	?
54. CC(C)CNC(=O)CCCc1ccccc1
    2.5%	1%	-1%	-9%	?	-20%	-3%	26%
55. CCOc1ccc(Nc2nc(N)c([N+](=O)[O-])c(N3CCOCC3)n2)cc1
    .	-45%	.	-2%	-15%	2%	0%	-19%
56. Cc1ccc(CN2CCSc3ccc(C(=O)Nc4cc(C)cc(C)c4)cc32)cc1
    -19%	?	10µM*	.	?	.	.	-2%
57. O=c1[nH]nc(Cc2ccc(-c3ccccc3Cl)o2)c2ccccc12
    -8.2%	?	-27%	12%	17%	0%	1%	-16%
58. CCC1(C)CC(=O)N(c2ccc(F)c(Cl)c2)C(=O)C1
    .	3%	.	1%	.	1%	1%	-12%
59. COCCCN1C(=O)C(=O)/C(=C(/O)c2ccc(S(=O)(=O)N3CCOCC3)cc2)C1c1ccc(C(C)C)cc1 (centres undefined)
    .	-14%[46.1 µM]	.	4%	21%[46.1 µM]	-13%	-1%	-3%

Assay outcomes deposited in PubChem by National Center for Advancing Translational Sciences (NCATS).
